From PubChem
Beta cell apopt – inhibitors of cytokine-induced beta cell apoptosis, primary screen, luminescence | INS-1E cytokine-induced death, ATP luminescence, 48 h; percent of positive-control rescue, neutral wells zero | protection from apoptosis, % (test concentration not listed) | 300,000 tested, 0.8% active;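 active means all replicates at 75% or more, or half of them and the mean; inconclusive means half reach 75% but not the mean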;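 further: 0% = cytokine-treated negative control wells and 100% = positive control rescue; higher means more ATP so stronger rescue from cytokine killing; wells of about 40 µL received 100 nL stock; the first replicate is given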
T cruzi repl – inhibitors of intracellular T. cruzi growth, primary screen, luminescence, NIH3T3 host cells | T. cruzi beta-gal in NIH3T3, 90 h | inhibition, % (test concentration not listed) | 300,000 tested, 1.4% active | AID 1885, 2009;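 active means mean inhibition across valid replicates above about 55%, limit read from the data; inconclusive means mean below that limit but half or more replicates reach it; inactive means mean below it, under half of replicates reach it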;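 further: signal also drops with host cell toxicity which is not excluded here; 0% = plate median of DMSO wells and 100% = zero luminescence signal; higher percent means less beta-gal luminescence so fewer parasites; stock transfer was 50 nL into about 50 µL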
A1 inh – caspase 3/7 activation in MEF A1-2A-BIM cells, primary screen, A1 inhibitor project, cell-based, luminescence, HTS; Caspase-Glo 3/7 luminescence, 3 h; percent of clofoctol response, vehicle zero; caspase activation, % (no concentration beside the values); 330,000 tested, 0.066% active; AID 2462, 2010;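 active means over half of replicate activation scores above 10%, or exactly half above 10 with the replicate mean above 10; inconclusive means replicate mean below 10 yet half the replicates above 10; inactive means over half of replicates below 10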;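 further: wells of about 30 µL received 50 nL stock; many hits fall short of the cut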
RanGTP-Impb inh – inhibitors of RanGTP-importin-beta interaction, primary screen, biochemical, FRET, CFP-Ran, YFP-importin-beta, homogeneous. Ran GTPase (GTP-bound) - importin-beta complex. cell-free CFP-Ran/YFP-importin-beta FRET ratio. inhibition, % (concentration not given with the values). 300,000 tested, 1.1% active;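 active means most replicates above 15%; inconclusive means exactly half above 15%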;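 further: 0% = DMSO wells and 100% = Ran loaded with GDP instead of GTP; wells of about 40 µL received 100 nL stock; the first replicate is given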
rRNA inh HTS – reduced GFP signal of wild-type E. coli, primary screen, bacterial rRNA inhibitor project, GFP/RFP fluorescence, OD600, single point | GFP signal change (wild-type ribosome), % (no concentration beside the values) | E. coli WT GFP vs humanized-ribosome RFP mutants, 24 h; active compounds read low; DMSO median 0, no signal -100 | 350,000 tested, 1.6% active;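 active means significant combined selectivity score with lowered wild-type GFP, culture density cut under 30%, mutant RFP and density less affected; inactive means any of these conditions unmet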; further: one replicate is shown; some compounds called inactive have numbers as strong as hits
AF4-AF9 inh – inhibitors of AF4 peptide binding to AF9, primary screen, biochemical, AlphaScreen, biotin-AF4 peptide, FLAG-AF9, single point | inhibition, % at 10 µM | 350,000 tested, 0.47% active | AID 651704, 2012;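 active means every replicate reaching a set inhibition limit, whatever the replicate mean, cut at about 25% in these data; inconclusive means mean inhibition reaches that limit but some replicates miss it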;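 further: 0% = plate neutral control median and 100% = total signal loss; the record names both 10 and 1 µM as test concentration; the first replicate is given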
Target sequence (P42568 whole entry, looked up): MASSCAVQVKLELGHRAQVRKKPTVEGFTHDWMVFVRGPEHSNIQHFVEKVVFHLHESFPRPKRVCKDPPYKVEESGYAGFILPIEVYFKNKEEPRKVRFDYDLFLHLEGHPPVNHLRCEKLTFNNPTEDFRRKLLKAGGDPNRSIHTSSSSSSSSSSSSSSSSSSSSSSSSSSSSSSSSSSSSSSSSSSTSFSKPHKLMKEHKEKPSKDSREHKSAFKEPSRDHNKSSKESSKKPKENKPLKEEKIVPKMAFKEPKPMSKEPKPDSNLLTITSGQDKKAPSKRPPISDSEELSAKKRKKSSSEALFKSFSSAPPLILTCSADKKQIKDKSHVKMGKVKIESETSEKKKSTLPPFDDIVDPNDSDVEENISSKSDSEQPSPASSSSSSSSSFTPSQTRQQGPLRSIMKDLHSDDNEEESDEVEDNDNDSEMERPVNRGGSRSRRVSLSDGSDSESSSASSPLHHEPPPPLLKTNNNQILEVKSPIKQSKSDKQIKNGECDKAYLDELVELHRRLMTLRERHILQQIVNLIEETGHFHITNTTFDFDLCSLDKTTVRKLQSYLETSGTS
Vif A3G – inhibitors of Vif binding to APOBEC3G peptide, primary screen, biochemical, TR-FRET, GST-Vif 1-94, biotin-A3G peptide, dose response retest (AID 1117319); Virion infectivity factor (Human immunodeficiency virus type 1 group M subtype B (isolate …; TR-FRET GST-Vif / biotin-A3G peptide binding; higher % means a stronger effect; test concentration not given here; strong numbers were not always called active; inhibition, %; hits with a dose series show IC50 in µM; 260,000 tested, 0.57% active;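 active means above the screen mean plus three standard deviations and confirmed in dose response; inconclusive means results disagree or hit not tested in dose response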;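 further: Vif residues 1-94 fused to GST binding biotinylated APOBEC3G peptide 110-148; 0% = full assay without inhibitor and 100% = GST in place of GST-Vif; retest series ran down from 100 µM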
Calb FLC – C. albicans growth inhibition with fluconazole, primary screen, CaCi-2 strain, Alamar Blue fluorescence | C. albicans CaCi-2 (fluconazole-resistant clinical isolate) + fluconazole, 48 h | growth inhibition, % (no concentration beside the values) | 300,000 tested, 0.57% active | AID 1979, 2009;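 active means most replicates above 75%; inconclusive means exactly half above 75%; inactive means most below 75%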;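 further: all wells also contain fluconazole at 8 µg/ml as a sub-toxic cotreatment; 0% = median of DMSO wells and 100% = median of geldanamycin control wells; wells of about 8 µL received 7.5 nL stock; the first replicate is given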
rRNA inh HTS OD600 – further read-out of rRNA inh HTS, marked with its call; OD600 change, %; measured here: OD600 growth;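 optical density of the mix in the first replicate; 0 = DMSO median and -100 = no signal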
rRNA inh HTS RFP – also measured in rRNA inh HTS; calls as there; RFP signal change, %; measured here: RFP humanized mutant strains;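 first replicate; 0 = DMSO median and -100 = no signal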
An asterisk follows results filed as active; ? = inconclusive; . = not tested or not shown; & = joins results of further samples. Only part of the results is shown (hit frequency here may not be typical).

SMILES	Beta cell apopt	T cruzi repl	A1 inh	RanGTP-Impb inh	rRNA inh HTS	rRNA inh HTS OD600	rRNA inh HTS RFP	AF4-AF9 inh	Vif A3G	Calb FLC
O=C(O)CCn1cnc2ccccc2c1=O	-5	-4	0.0	0.5	.	.	.	0.5	?	-6
Cc1ccc(-c2csc3nnc(SCC(=O)N4CCN(Cc5ccccc5)CC4)n23)cc1	3	26	-0.1	-2.4	.	.	.	.	-4%&-1%	1
Cc1ccc(C(=O)Nc2cccc(C(F)(F)F)c2)cc1Nc1ccccn1	.	10	-0.2	-3.6	-50	-77	-15	-3.4	.	15
CC(C)NC(=O)NC(=O)CSc1ccccc1F	-7	-11	0.7	-2.4	.	.	.	.	23%	-4
COc1ccccc1N(CC(O)CN1CCCCC1)S(=O)(=O)c1ccc(C)cc1 (stereo unspecified)	0	7	0.2	?	-1	-6	-0.1	-1.0	.	-10
CCN(C[C@H]1N[C@@](CC)(C(=O)OC)[C@H]2C(=O)N(C)C(=O)[C@@H]12)C(=O)Nc1ccc(C)cc1	-5	.	-0.8	.	9	17	-0.1	-0.4	4%	.
O=C(Nc1ccc(N2CCN(Cc3ccccc3)CC2)cc1)c1ncn[nH]1	-10	-9	-0.5	-2.6	.	.	.	.	20%	-22
O=C(O)C1C(c2ccccc2)C(C(=O)OCc2ccco2)C1c1ccccc1 (stereo unspecified)	-4	-14	-0.5	0.4	.	.	.	.	2%	6
Cc1ccccc1NC(=O)CSCc1cc(=O)n2ccsc2n1	-6	-23	-1.2	-4.7	16	18	0.8	-3.3	-9%	0
Cc1ccc(OCc2ccc(C(=O)O)o2)c([N+](=O)[O-])c1	.	-6	-5.8	-4.4	-26*	-17*	-17*	-0.2	.	6
CCCC(=O)OCCNc1cc(Sc2nc3ccccc3[nH]2)c2nonc2c1[N+](=O)[O-]	4	18	-0.4	1.9	.	.	.	.	.	-6
Cc1ccc(/C=C/C(=O)N2CCCC(C)C2)cc1 (stereo unspecified)	-4	20	-7.2	?	2	-1	-2.6	-1.4	1%	-11
CCOC(=O)Cc1cc(=O)c2cc(C)ccc2[nH]1	-5	-10	-1.5	-0.4	8	11	1.7	-2.7	-6%	1
COc1ccc(NC(=O)C23CCC(C)(C(=O)C2)C3(C)C)cc1 (stereo unspecified)	-5	-2	-0.1	-1.3	.	.	.	.	-2%	-3
CC(=O)N1CCc2cc(S(=O)(=O)NCCC(=O)NC3CCCc4ccccc43)ccc21 (stereo unspecified)	6	3	-0.2	-0.2	.	.	.	.	1%	7
CCn1c(CNS(=O)(=O)c2ccc(Br)cc2)n[nH]c1=S	1	-4	0.4	1.8	7	6	0.8	-5.0	.	17
O=C(Nc1nc(-c2ccc(F)c(F)c2)cs1)c1ccc(OCC2CCCO2)cc1 (stereo unspecified)	6	14	0.2	-14	13	1	-1.8	-6.4	.	-19
Cc1ccc(-c2csc3ncnc(Nc4ccc(C(=O)O)cc4)c23)cc1	4	20	1.2	-8.7	-20	-13	-7.4	-19	.	16
COc1ccc(C(=O)OCC(=O)NC2CC2)cc1S(=O)(=O)N1CCOCC1	0	-4	-0.9	0.4	11	5	-1.5	-21	6%	0
O=C(NNc1nc(N2CCOCC2)nc(N2CCOCC2)n1)Nc1ccc(Cl)cc1	1	-3	0.7	-0.7	9	4	1.6	1.6	12%	-14
COc1ccccc1NC(=O)C1CCN(c2ncnc3c2nc2n3CCCCC2)CC1	4	0	-0.1	0.9	1	1	-0.1	-2.2	.	10
CC1CC(C)CN(C(=O)Cn2c(=O)n(CCCCC(=O)NC3CCCC3)c(=O)c3ccccc32)C1 (stereo unspecified)	5	1	0.9	?	.	.	.	.	2%&2%	-5
COc1ccc(-c2cc(-c3ccccc3)nc(-c3ccc4c(c3)NC(=O)CO4)c2)cc1	4	46	0.2	5.0	.	.	.	.	-8%	-1
COc1ccccc1CN(CC(=O)NCc1ccc(F)cc1)C(=O)c1csnn1	2	3	-0.6	-2.0	-1	-4	-0.9	-2.3	.	2
O=C1/C(=C/c2ccc(F)cc2)SC(=S)N1N1CCOCC1	-3	-21	-0.6	-1.3	13	11	-0.4	0.1	4%	16

Rewritten with values under each structure: 2 of the compounds above.
Order of results: Beta cell apopt	T cruzi repl	A1 inh	RanGTP-Impb inh	rRNA inh HTS	rRNA inh HTS OD600	rRNA inh HTS RFP	AF4-AF9 inh	Vif A3G	Calb FLC
> COc1ccccc1NC(=O)C1CCN(c2ncnc3c2nc2n3CCCCC2)CC1
 : 4	0	-0.1	0.9	1	1	-0.1	-2.2	.	10
> CC1CC(C)CN(C(=O)Cn2c(=O)n(CCCCC(=O)NC3CCCC3)c(=O)c3ccccc32)C1 (stereo unspecified)
 : 5	1	0.9	?	.	.	.	.	2%&2%	-5

The list continues.
SMILES	Beta cell apopt	T cruzi repl	A1 inh	RanGTP-Impb inh	rRNA inh HTS	rRNA inh HTS OD600	rRNA inh HTS RFP	AF4-AF9 inh	Vif A3G	Calb FLC
O=[N+]([O-])c1ccc(C[n+]2cccc3ccccc32)cc1	1	9	0.8	2.9	19	-1	-2.7	6.0	8%	-36
CNC(=O)c1ccsc1NC(=O)c1sc2ccccc2c1Cl	.	21	0.3	1.7	3	28	4.8	3.3	-22%	19
O=C(Nc1cccc2ccccc12)N1CC=C(c2ccccc2)CC1	-4	9	1.3	-4.9	.	.	.	.	5%	3
Cc1cccc(Nc2nc(N)c([N+](=O)[O-])c(N3CCC(C)CC3)n2)c1	10	15	2.3	1.9	-17	-19	0.7	19	-2%	31
O=C(Cn1cnc2ccccc21)Nc1ccccc1-c1ccccc1	-2	1	1.2	2.1	0	3	-3.0	-0.8	.	-1
C=CCn1c(=O)/c(=C/c2ccc(C)o2)s/c1=C(/C#N)C(=O)c1ccccc1	-2	18	-1.0	4.0	.	.	.	.	?	0
C=CCNC(=O)C1CC(=O)N(c2ccc(OCC(=O)Nc3ccccc3)cc2)C1 (stereo unspecified)	6	-8	-2.5	0.6	.	.	.	.	?	15
c1cncc(-c2csc(-c3cccnc3)n2)c1	-8	-4	1.8	9.5	3	-3	-0.4	-2.4	-5%	2
CN(C)c1ccc(P(=O)(COc2ccc([N+](=O)[O-])cc2)c2ccc(N(C)C)cc2)cc1	2	33	0.3	7.9	3	0	-0.3	17	14%	-3
CCOC(=O)c1c[nH]c2nc(C)ccc2c1=O	-7	-19	0.1	24*	16	10	0.7	-0.7	14%	2
CCn1ncc(Br)c1C(=O)Nc1ncc(C)s1	-1	7	-1.1	-0.9	2	-7	1.0	-1.9	.	-10
CC(C)n1c(SCC(=O)NCc2ccco2)nnc1C1CC1	2	0	0.1	-2.0	5	8	-1.4	0.0	.	5
CSc1cccc(NC(=S)N2CCC(N(C)C(C)C)CC2)c1	-8	1	-1.3	-2.4	13	7	0.4	-1.5	0%	-18
CN(C)C(=O)c1ccc(Cl)cc1[N+](=O)[O-]	-6	-23	-0.9	-1.4	6	15	-5.3	-2.1	18%	21
O=C(CSc1nc2ccccc2c(=O)n1CCCC(=O)N1CCCC1)NCc1ccco1	-5	9	-0.7	1.6	.	.	.	.	3%	-10
Cc1ccc(NC(=O)CC(C)c2ccccc2)cc1S(=O)(=O)N1CCOCC1 (stereo unspecified)	2	.	-0.3	.	-10	-15	4.4	1.8	3%	.
COC(=O)[C@H](CCSC)NC(=O)Nc1ccc(OC)cc1OC	-3	-12	-0.4	-1.3	.	.	.	.	-2%	0
COc1ccc(NS(=O)(=O)Cc2ccccc2Cl)cn1	-3	-9	0.9	4.8	.	.	.	.	4%	6
COC(=O)c1ccc(Nc2nnc(-c3ccc(C)c(S(=O)(=O)NCC4CCCO4)c3)c3ccccc23)cc1 (stereo unspecified)	13	41	0.4	-0.6	.	.	.	.	.	4
Cc1c(NC(=O)C(=O)/C=C(\O)c2ccc(Br)cc2)c(=O)n(-c2ccccc2)n1C	.	1	-0.2	?	.	.	.	.	17%	3
CC1CCCC(C)N1S(=O)(=O)c1ccc(S(=O)(=O)NCCc2ccncc2)cc1 (stereo unspecified)	.	57*	0.3	-4.1	15	2	6.7	0.3	.	-13
COc1ccc(-c2cnc(N)nc2-c2ccc(OC)cc2)cc1	-9	11	-0.4	2.4	-11	-20	0.9	0.6	-3%	-4
COc1cc2sc3cc(NCc4ccc5c(c4)OCO5)ccc3c(=O)c2cc1OC	2	.	-1.3	.	-16	-18	-15	-3.9	.	.
CN(Cc1ccccc1)C(=O)c1cccnc1	-4	-4	0.5	1.1	6	9	-1.4	-1.3	.	-3
COc1cc(S(=O)(=O)N2CCCCCC2)ccc1-n1cnnn1	-10	-20	0.8	3.7	5	11	-4.1	5.3	14%	-11

Continuation:
SMILES	Beta cell apopt	T cruzi repl	A1 inh	RanGTP-Impb inh	rRNA inh HTS	rRNA inh HTS OD600	rRNA inh HTS RFP	AF4-AF9 inh	Vif A3G	Calb FLC
CCCCn1c(N)c(N(CC(C)C)C(=O)c2cc(C)oc2C)c(=O)[nH]c1=O	.	-7	-0.6	4.3	21	12	-0.3	0.8	1%	0
O=C(CSCc1ccc([N+](=O)[O-])cc1)N/N=C/c1cccnc1	2	-8	0.8	-1.3	14	4	0.1	2.6	-3%	-31
CCC(=O)N1CCc2cc(S(=O)(=O)NCCC(=O)N3CCN(c4cccc(OC)c4)CC3)ccc21	-1	0	0.8	-1.8	6	8	3.5	0.1	.	1
Oc1ccc(N=Nc2c(O)ccc3ccccc23)cc1	21	4	-2.5	?	-63	-76	-24	6.0	5%	25
CCC/C=N/NC(=O)c1[nH]c2c([N+](=O)[O-])cccc2c1C	-9	-77	0.2	-2.8	-4	5	-2.3	-2.6	.	38
CC1CN(/C=C/C=O)C(C)CC1OC(=O)c1ccccc1 (stereo unspecified)	-3	1	0.0	?	5	10	2.3	1.1	-5%	-4
O=C(OCCN1C(=O)c2ccccc2C1=O)c1cccs1	8	0	0.6	?	.	.	.	.	7%	-20
C#Cc1ccc([C@@H]2C=C(C(=O)N3CCN(Cc4ccc5c(c4)OCO5)CC3)O[C@H](OCCCCO)C2)cc1	4	5	0.3	5.0	-2	1	3.7	-8.3	7%	-20
COc1ccc(CC(NC(C)=O)C(=O)N2CCN(C(=O)Nc3cccc(F)c3)CC2)cc1OC (stereo unspecified)	-3	-7	0.2	4.9	16	10	2.1	3.5	.	2
Cc1cc(C)n2nc(CNS(=O)(=O)c3ccc([N+](=O)[O-])cc3)nc2n1	4	-5	1.3	0.8	6	15	-4.4	-2.6	6%	8
CCc1c(C)nc2ncnn2c1NCCc1ccc(Cl)cc1	61	12	1.0	?	-12	-7	-4.0	0.3	-2%	51
